MT1-MMP act inh – blockers of MT1-MMP proenzyme processing, primary screen, HT1080 RFP-PRO-GFP cells, GFP/RFP fluorescence. 360,000 tested, 0.061% active. Matrix metalloproteinase-14 (Homo sapiens), P50281. GFP/RFP ratio change, % at 20 µM. GFP/RFP ratio fluorescence, overnight; percent of plate control window, DMSO zero;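 active = GFP/RFP ratio change of at least 30% with cell ATP level not reduced by more than half and red fluorescence within 50% of control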; note: strong numbers were not always called active
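Material: RFP-PRO-GFP reporter HT1080 cells. Dosing: single-point 20 µM compound, 1% DMSO. Controls: DMSO and RFP-L50D-GFP cell wells. Timing: cells overnight before dosing, compound overnight, 37 °C, 5% CO2. Measure: GFP/RFP fluorescence ratio.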
Yeast UUG start – modulators of yeast start codon fidelity, primary screen, whole organism, S. cerevisiae, single point, plate reader | S. cerevisiae UUG-firefly luciferase reporter, luminescence/redox ratio | activity score, % at 18.7 µM | 350,000 tested, 0.13% active | AID 602363, 2012;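 active = replicate mean at a twofold rise or more, about +100% in these data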;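 note: firefly luciferase made from a UUG start codon reports start codon fidelity; reporter light over untreated wells divided by growth signal over untreated wells; some hits fall short of that in this replicate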
MT1-MMP act inh RFP – recorded beside MT1-MMP act inh, whose call it bears; RFP signal change, %; measured here: RFP expression control read;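 0 = vehicle wells; hits needed this value within 50% of zero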
Active calls of the source: *; & = joins results of further samples. This is a subset. The share of hits here may be higher or lower than overall.

SMILES	MT1-MMP act inh	MT1-MMP act inh RFP	Yeast UUG start
CC(=O)N1CCN(C(=O)CNC(=O)c2cccs2)CC1	-4	5	-42
COc1ccc(CN2C(=O)C(CC(=O)NC3CCCC3)CC(C(=O)N3CCOCC3)=C2C)cc1 (stereo unspecified)	1	3	2
COc1ccc(OC)c(CN2CCN(C(=O)c3ccc(S(=O)(=O)Nc4ccccc4F)cc3)CC2)c1	15	-7	-3
CCOC(=O)C1=C[C@@H](CC)N(S(=O)(=O)c2ccccc2)[C@H]1c1ccccc1	-1	1	-4
COc1ccc(Cl)cc1-c1cc(C(=O)Nc2ccc(C(C)(C)C)cc2)[nH]n1	-2	-7	-7
CC(C)C1C(=O)N(Cc2cn(CC3CCCCC3)nn2)CCS(=O)(=O)N1Cc1ccc(-c2ccncc2)cc1 (stereo unspecified)	3	-3	-12
Cc1ccc(C(=O)N2CCN(c3cccc(C)c3C)CC2)cc1S(=O)(=O)N1CCOCC1	0	-4	-2
COC1OC(COCc2ccccc2)C(N)C(OCc2ccccc2)C1OCc1ccccc1 (stereo unspecified)	-2	-3	4
Cc1ccc(C)c(S(=O)(=O)N2CCN(c3nc(CN4CCOCC4)nc4sc(C)c(C)c34)CC2)c1	-5	-1	0
CC1C(=O)N(Cc2cn(Cc3ccco3)nn2)CCS(=O)(=O)N1Cc1ccc(-c2ccccc2)cc1 (stereo unspecified)	-2	-4	-11
CC(=O)N1CCN(C(=O)COC(=O)CNC(=O)c2ccc(C)cc2)CC1	-1	2	-32
CCN(CC(=O)Nc1ccccc1OC)C(=O)CN1C(=O)NC(C)(c2ccc3ccccc3c2)C1=O (stereo unspecified)	1	-9	12
O=C1C(N2CCOCC2)=Cc2cccc3cccc1c23	-3	37	-6
CS(=O)(=O)Cc1nc2ccccc2n1CC(=O)Nc1cccc(S(=O)(=O)N2CCCC2)c1	6	0	-11
CC(=O)c1ccc(NC(=O)CSc2nnc(-c3ccncc3)n2C2CC2)cc1	-3	5	-7
CCOc1ncccc1C(=O)Nc1ccc(C(=O)Nc2ccc(OC)cc2)cc1	3	-3	-11
Cc1cc(Cl)c(C)c(S(=O)(=O)N2CCN(CC(=O)N3CCOCC3)CC2)c1Cl	8	2	-28
COCC1OC(OC(C)C(O)c2cnc3nc(N)[nH]c(=O)c3n2)C(O)C(OC)C1O (stereo unspecified)	3	4	34
CCN1CCCC1CNC(=O)Cn1cc(C)c(=O)[nH]c1=O (stereo unspecified)	1	3	-13
CCCCCCCCNc1ccccc1S(=O)(=O)NCc1ccccc1	-3	-8	-18
CC(CCC(=O)O)C1CCC2C3CC(O)C4CC(O)CC[C@]4(C)C3CCC12C (stereo partly specified)	7	3	4
Cc1ccc(NC(=O)COC(=O)c2c(-c3ccccc3)noc2C)c(C)c1	4	-9	-3
COc1ccc(S(=O)(=O)N2CCCCCC2)cc1NC(=O)c1ccccc1S(C)(=O)=O	3	2	3
COC(=O)c1ccc2nc(-c3ccco3)c(Cc3ccc(OC)cc3C)n2c1	-3	3	-12
CNC[C@H]1OCc2ccccc2-c2ccccc2C(=O)N([C@@H](C)CO)C[C@H]1C	-4	-3	9
(listing goes on)
SMILES	MT1-MMP act inh	MT1-MMP act inh RFP	Yeast UUG start
Cc1ccc(C)c(OCC(=O)NNC(=O)C2CCC2)c1	-1	3	-8
CCOc1ccccc1NC(=O)C(OC(=O)c1cnc(C)cn1)c1ccccc1 (stereo unspecified)	-1	1	1
O=C(CNC(=O)c1ccccc1Br)NCC(c1ccco1)N1CCCCC1 (stereo unspecified)	0	0	-9
NS(=O)(=O)c1ccc(CCNC(=O)CNC(=O)c2ccc(Br)o2)cc1	3	4	-5
COc1ccc(-c2noc(CCC(=O)N3CCN(c4ccc(F)cc4)CC3)n2)cc1	4	-4	-18
CC1CCCN(C(=O)c2ccc(Br)c(S(=O)(=O)N3CCOCC3)c2)C1 (stereo unspecified)	0	-1	-3
CCNC1(C#N)CCN(Cc2ccccc2)CC1	1	0	-4
Cc1ccc(S(=O)(=O)N2CCCCC2)cc1NC(=O)COC(=O)c1ccc(=O)[nH]c1	-1	-1	0
CN(c1ccccc1)S(=O)(=O)c1cccc(NS(=O)(=O)c2cccc(C(=O)O)c2)c1	1	0	-14
Cc1ccc(S(=O)(=O)N2CCOCC2)cc1C(=O)Nc1ccccc1N1CCOCC1	-1	2	-16
O=S(=O)(c1ccccc1)N(F)S(=O)(=O)c1ccccc1	-1	4	-22
NS(=O)(=O)c1cccc(NC(=O)COC(=O)c2ccc(S(=O)(=O)N3CCOCC3)cc2)c1	5	2	-12
COc1ccccc1C=NN=C(NN=Cc1ccccc1OC)NN=Cc1ccccc1OC	-9	-28	2
CCOC(=O)C1=CCN(S(=O)(=O)c2ccccc2F)C1c1ccc(Cl)c(Cl)c1 (stereo unspecified)	3	0	-6
CC1(C(=O)NS(=O)(=O)c2ccc(F)cc2F)CCN1C(=O)CC1CCCCC1 (stereo unspecified)	-1	0	16
COC(=O)Cn1cnc(C(=O)Nc2ccc(C)c(C)c2)n1	6	3	-19
COC1=CC(=O)c2ccccc2C1=O	-29	-6	-23
O=C(NCc1ccccc1CN1CCCC1)c1cc2cc(Cl)ccc2o1	-3	0	10
COc1ccc(CCNC(=O)COC(=O)c2cc(S(=O)(=O)N3CCCC3)ccc2O)cc1	0	2	-15
CC(C)(C)n1c(O)c2n(c1=O)Cc1ccccc1N=C2c1ccccc1	2	2	-17
CC(=O)Nc1ccc2c3c(ccc([N+](=O)[O-])c13)CC2	-4	3	-16
CCCCn1c(N)c(N(C)C(=O)c2ccc(OCC3CCCO3)cc2)c(=O)[nH]c1=O (stereo unspecified)	7	3	-8
CC1=C(C(=O)N2CCOCC2)CC(CC(=O)NCC2CCCCC2)C(=O)N1Cc1ccc(C(C)(C)C)cc1 (stereo unspecified)	2	-4	6
Cc1ccc(F)cc1S(=O)(=O)Nc1cccc(C(=O)N2CCCC(C(N)=O)C2)c1 (stereo unspecified)	-2	7	-6
Cc1ccc2c(c1)[C@H]1[C@H](CO2)[C@H](c2ccccc2)[C@]2(C)C(=O)N(C)CC(=O)N12	-2	3	-10

An excerpt from above in order of molecular weight, falling.
SMILES	MT1-MMP act inh	MT1-MMP act inh RFP	Yeast UUG start
NS(=O)(=O)c1cccc(NC(=O)COC(=O)c2ccc(S(=O)(=O)N3CCOCC3)cc2)c1	5	2	-12
COc1ccc(CCNC(=O)COC(=O)c2cc(S(=O)(=O)N3CCCC3)ccc2O)cc1	0	2	-15
Cc1ccc(S(=O)(=O)N2CCOCC2)cc1C(=O)Nc1ccccc1N1CCOCC1	-1	2	-16
CCOC(=O)C1=CCN(S(=O)(=O)c2ccccc2F)C1c1ccc(Cl)c(Cl)c1 (stereo unspecified)	3	0	-6
O=C(CNC(=O)c1ccccc1Br)NCC(c1ccco1)N1CCCCC1 (stereo unspecified)	0	0	-9
CC1CCCN(C(=O)c2ccc(Br)c(S(=O)(=O)N3CCOCC3)c2)C1 (stereo unspecified)	0	-1	-3
NS(=O)(=O)c1ccc(CCNC(=O)CNC(=O)c2ccc(Br)o2)cc1	3	4	-5
Cc1ccc(F)cc1S(=O)(=O)Nc1cccc(C(=O)N2CCCC(C(N)=O)C2)c1 (stereo unspecified)	-2	7	-6
CC1(C(=O)NS(=O)(=O)c2ccc(F)cc2F)CCN1C(=O)CC1CCCCC1 (stereo unspecified)	-1	0	16
COc1ccc(-c2noc(CCC(=O)N3CCN(c4ccc(F)cc4)CC3)n2)cc1	4	-4	-18
O=C(NCc1ccccc1CN1CCCC1)c1cc2cc(Cl)ccc2o1	-3	0	10
CC(C)(C)n1c(O)c2n(c1=O)Cc1ccccc1N=C2c1ccccc1	2	2	-17
COC(=O)Cn1cnc(C(=O)Nc2ccc(C)c(C)c2)n1	6	3	-19
Cc1ccc(C)c(OCC(=O)NNC(=O)C2CCC2)c1	-1	3	-8
CC(=O)Nc1ccc2c3c(ccc([N+](=O)[O-])c13)CC2	-4	3	-16
CCNC1(C#N)CCN(Cc2ccccc2)CC1	1	0	-4
COC1=CC(=O)c2ccccc2C1=O	-29	-6	-23

As a short view, part of the list above:
SMILES	MT1-MMP act inh	MT1-MMP act inh RFP	Yeast UUG start
Cc1ccc(C)c(OCC(=O)NNC(=O)C2CCC2)c1	-1	3	-8
CCOc1ccccc1NC(=O)C(OC(=O)c1cnc(C)cn1)c1ccccc1 (stereo unspecified)	-1	1	1

The listing continues:
SMILES	MT1-MMP act inh	MT1-MMP act inh RFP	Yeast UUG start
C[C@@H]1CN([C@@H](C)CO)C(=O)CCCn2nncc2CO[C@@H]1CN(C)C(=O)Nc1ccc(N2CCN(C)CC2)cc1	0	5	-11&-5
COc1cc(SC)ccc1C(=O)N(C)CC(=O)Nc1cccc2ccccc12	4	-1	-4
CC(NC(=O)COC(=O)CN1C(=O)NC2(CCCC2)C1=O)c1ccc(F)cc1 (stereo unspecified)	1	2	-13
CCOc1ccccc1C(=O)OCC(=O)NCC1CCCO1 (stereo unspecified)	2	2	-1
COc1cc(C(=O)NCC2CCCO2)cc(Br)c1OCc1ccccc1 (stereo unspecified)	-3	-11	-5
CC(=O)N[C@@H](Cc1c[nH]c2ccccc12)C(=O)OCC(=O)Nc1ccc2c(c1)OCO2	-3	3	7
CCCCN(C(=O)CCN1C(=O)C2CC=CCC2C1=O)c1c(N)n(CCCC)c(=O)[nH]c1=O (stereo unspecified)	1	-1	-14
Cc1ccc(NC(=O)CSc2nncs2)cc1Cl	6	1	-18
CC1CCCC(C)N1C(=O)COC(=O)c1n[nH]c(=O)c2ccccc12 (stereo unspecified)	0	5	7
CC1CCN(C(=O)COC(=O)CNC(=O)c2ccccc2F)CC1	1	4	6
CC(=O)N1CCN(CCS(=O)(=O)c2ccc(Br)cc2)CC1	0	3	-9
NS(=O)(=O)c1cccc(NC(=O)CSc2n[nH]c(-c3ccccc3Br)n2)c1	6	-3	-16
COc1ccc(/C=C/C(=O)Nc2cccc(S(=O)(=O)NC3=NCCCCC3)c2)cc1OC	-3	-17	-9
O=C([C@H]1O[C@@H](n2ccc(=O)[nH]c2=O)[C@H](O)[C@@H]1O)N(CCC1=CCCCC1)CC1CC1	4	2	1
Cc1ccc(F)cc1C(=O)N1CCC1(C)C(=O)O (stereo unspecified)	4	9	5
O=c1c(O)c(-c2ccccc2)oc2ccccc12	-2	-8	-3
Cc1ccccc1OCC(=O)OCC(=O)Nc1ncc(Cl)c(C)c1Cl	-1	0	-23
Cc1cccc(C)c1NC(=O)CNC(=O)CCCN1C(=O)c2cccc3cccc(c23)C1=O	-5	-5	-14
O=C(CC[C@H]1O[C@@H](n2ccc(=O)[nH]c2=O)[C@H](O)[C@@H]1O)NC1CCN(Cc2ccccc2)C1 (stereo partly specified)	2	2	-12
COc1cc(OC)cc(C(=O)NC(C(=O)OCn2nnc3ccccc3c2=O)C(C)C)c1 (stereo unspecified)	-6	-1	-10
COc1cccc(CN(C)C(=O)c2cccc(S(=O)(=O)N3CCN(Cc4ccccc4)CC3)c2)c1OC	-12	-31	-5
O=C1C(Cc2ccccc2)Nc2ncnc(N3CCc4ccccc4C3)c2N1Cc1ccccc1 (stereo unspecified)	0	1	10
COc1ccccc1/C=C/C(=O)OCC(=O)Nc1ccc2c(c1)OCCO2	0	4	-15
CN(CC(=O)Nc1ccc(F)cc1)C(=O)Cc1ccsc1	1	3	21
CCC1([N+](=O)[O-])COC(c2ccc(Cl)cc2)OC1 (stereo unspecified)	0	2	-6
The results go on.
SMILES	MT1-MMP act inh	MT1-MMP act inh RFP	Yeast UUG start
Cc1[nH]c2ccccc2c1C(=O)COC(=O)C1CC(O)CN1S(=O)(=O)c1ccc(Cl)cc1 (stereo unspecified)	-5	1	-32
Cc1cc(Br)ccc1NC(=O)CN(C)C(=O)CSC(=S)N1CCCC1	2	1	-7
c1ccc2c(c1)nnn2Cn1nnc2ccccc21	2	3	-6
O=C(COC(=O)c1ccc(O)cc1O)NC1CC1	-1	1	-12
COc1ccccc1NC(=O)CN1C(=O)NC2(CCCc3ccccc32)C1=O (stereo unspecified)	-1	-1	6
Cc1noc(C)c1C(=O)N1CCC1(C)C(=O)NS(=O)(=O)Cc1cccc(Cl)c1 (stereo unspecified)	1	6	-7
COc1cccc(NC(=O)CN(C)C(=O)c2ccc(S(=O)(=O)Nc3ccccc3C)cc2)c1	7	-6	3
COCC(C)n1c(C)cc(C(=O)CSc2nnnn2C2CCCC2)c1C (stereo unspecified)	1	-3	-34
CC(=O)c1ccc(N2CCN(CC(=O)N(C3CC3)C3CCS(=O)(=O)C3)CC2)c(F)c1 (stereo unspecified)	-3	-2	3
COc1ccccc1CNCCS(=O)(=O)NCc1ccccc1OC	2	2	7
Cc1cn([C@H]2C[C@H](O)[C@@H](/C=C/C(=O)N3CCN(Cc4ccc(F)cc4)CC3)O2)c(=O)[nH]c1=O	0	5	1
CNC(=O)C[C@H]1C(=O)N(c2ccc(OC)cc2)C[C@@H]1CSC	4	6	5
Cc1ccc(S(=O)(=O)NCc2ccccc2)cc1C(=O)NCCc1ccc(S(N)(=O)=O)cc1	7	4	-9

Source: PubChem (several laboratories)
